rTrxR1 inhibitor – blocks rat thioredoxin reductase 1; actives 1% (n = 390,000); Potency, µM (doses to about 114 µM), for the others: at the highest dose activity change, negative = inhibition, usual class: inhibitors; recombinant rTrxR1, NADPH fluorescence consumption, selenite substrate; AID 588453; O89049; note: % is set by controls: 0 for no effect and ±100 for the full control effect; nearly all actives have a fitted effect of over 65% in size
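Rat TrxR1 (90 nM in the dispensed reagent) was pre-reduced with 400 uM NADPH for 5 min at room temperature, then incubated with compound for 15 min. After 400 uM selenite was added, NADPH fluorescence (Ex 340/Em 450 nm) was followed for 8 min.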
HP1b binding inh – blocks HP1-beta chromodomain binding to methylated histone tails; AlphaScreen HP1-beta / biotin-H3K9me3 peptide binding; actives 0.56% (n = 390,000); P83916; AID 540317; Potency, µM (top dose mostly 114 µM), inactives show top-dose activity change, negative = inhibition, hits mostly inhibitors; note: nearly all actives have a fitted effect of over 70% in size; inactives centre near 23
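AlphaScreen: HP1-beta (50 nM) preformed 30 min with biotin-H3(1-18)K9me3 peptide (50 nM) in PBS pH 7.4, 0.01% Tween-20. Compound added for 30 min at RT, then streptavidin donor/nickel chelate acceptor beads (10 ug/mL) for 30 min.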
12-LOX inh – blocks human arachidonate 12S-lipoxygenase. purified 12hLO, xylenol orange hydroperoxide absorbance. P18054. actives 1.1% (n = 580,000). Potency, µM (series often up to 108 µM), inactives show at the top dose activity change, negative = inhibition, actives largely listed as inhibitors; note: % is set by controls: 0 for no effect and ±100 for the full control effect
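Hydroperoxide product was detected by ferrous iron/xylenol orange as the 573 to 405 nm absorbance ratio. Arachidonic acid at 40 uM (final) was turned over for 30 min at room temperature by 150 nM human 12hLO, pH 7.0 Hepes buffer, after 15 min compound preincubation.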
Pin1 inh – human Pin1 inhibition. Q13526. Pin1 FP peptide displacement, HiFluor488, 10 min. Potency, µM (series often up to 115 µM), for the others: at the highest dose activity, negative = inhibition, most hits filed as inhibitors. actives 0.009% (n = 390,000). AID 504891; active = well fitted inhibition curve with a large enough effect in the polarisation, with a control signal flat, not every such curve was filed as active; inconclusive = small, poorly fitted or top-dose-only effect, or effect the other way, or a change in a side signal; inactive = no such curve, though single readings can be large or run the other way; the % refers to the polarisation; note: % is set by controls: 0 for no effect and ±100 for the full control effect
Target sequence (Q13526 whole entry, looked up): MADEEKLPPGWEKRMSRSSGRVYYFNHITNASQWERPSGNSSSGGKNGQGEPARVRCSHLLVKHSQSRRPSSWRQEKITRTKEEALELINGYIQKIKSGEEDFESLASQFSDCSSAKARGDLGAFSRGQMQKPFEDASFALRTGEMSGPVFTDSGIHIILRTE
ERG Ets-DNA blk – blocks human ERG Ets domain binding to DNA; fluorescence polarization, His-ERG Ets domain / labelled DNA; Potency, µM (doses to about 76.9 µM), for the others: at the top dose FP activity, negative = inhibition, actives largely listed as inhibitors; actives 0.028% (n = 370,000); active = well fitted inhibition curve with a large enough effect in the polarisation, with a control signal flat; inconclusive = small, poorly fitted or top-dose-only effect, or effect the other way, or a change in a side signal; inactive = no such curve, though single readings can be large or run the other way; the % refers to the polarisation;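 note: polarization taken with two DNA probes labelled with fluorescein and Texas red; % of control where 0% means no effect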
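His-tagged ERG Ets domain (1 uM in the protein solution; 300mM KCl, 50mM Tris-HCl, 1mM EDTA, 1mM DTT, pH 7.5) received compound, then a probe mix of 5 nM fluorescein-DNA and 100nM Texas-615-DNA. Fluorescence polarization was read for both dyes.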
GLS inh – blocks human kidney-isoform glutaminase activity; O94925; GLS enzymatic activity, qHTS titration; Potency, µM (doses to about 45.5 µM), for inactives: at the highest dose activity change, negative = inhibition, actives largely listed as inhibitors; actives 0.21% (n = 410,000); note: % is set by controls: 0 for no effect and ±100 for the full control effect
Target sequence (O94925 whole entry, looked up, canonical isoform): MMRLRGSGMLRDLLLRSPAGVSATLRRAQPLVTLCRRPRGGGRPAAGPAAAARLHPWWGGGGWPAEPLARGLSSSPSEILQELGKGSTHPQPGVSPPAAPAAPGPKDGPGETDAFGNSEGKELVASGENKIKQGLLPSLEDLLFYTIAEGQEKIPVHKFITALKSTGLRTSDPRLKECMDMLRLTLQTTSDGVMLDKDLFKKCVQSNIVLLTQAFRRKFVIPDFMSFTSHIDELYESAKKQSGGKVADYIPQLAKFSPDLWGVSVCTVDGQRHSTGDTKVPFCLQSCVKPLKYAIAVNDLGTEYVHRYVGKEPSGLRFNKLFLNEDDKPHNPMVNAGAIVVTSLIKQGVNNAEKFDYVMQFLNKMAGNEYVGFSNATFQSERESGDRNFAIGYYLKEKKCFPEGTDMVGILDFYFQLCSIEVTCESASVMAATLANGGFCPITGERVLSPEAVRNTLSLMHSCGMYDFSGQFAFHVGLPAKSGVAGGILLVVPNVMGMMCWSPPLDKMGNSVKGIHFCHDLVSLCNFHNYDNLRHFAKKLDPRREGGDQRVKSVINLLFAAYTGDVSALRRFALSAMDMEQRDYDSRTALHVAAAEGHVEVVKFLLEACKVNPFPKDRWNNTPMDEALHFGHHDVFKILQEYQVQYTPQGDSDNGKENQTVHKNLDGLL
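Glutamate formation by hKGA was monitored fluorometrically using coupled glutamate oxidase, HRP and Amplex Red. Substrate was added as 1 mM L-glutamine solution; incubation was 30 min at RT after an initial read.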
The depositor's hits bear a star; ? = inconclusive; . = not tested or not shown; & = joins results of further samples; [ ] = dose if it differs, or a comment. Unless noted, calls come from the whole dose curve; as a rule, active = well fitted curve in the direction sought with a large enough effect; inconclusive = small, poorly fitted or top-dose-only effect, or another doubt; inactive = no such curve, though single readings can be large; an effect the other way counts as inactive or inconclusive. Potency is the fitted concentration of half-maximal effect.

Screens by letter – A = rTrxR1 inhibitor; B = HP1b binding inh; C = 12-LOX inh; D = Pin1 inh; E = ERG Ets-DNA blk; F = GLS inh
Molecule: Nc1ccc(-c2nc3ccc(N)cc3[nH]2)cc1
  A: -19%; B: ?; C: 8%; D: -1%; E: 27%; F: 27%

Molecule: CCC(C)(C)N=C(NC#N)Nc1cccnc1
  A: .; B: .; C: 0%; D: .; E: .; F: .

Molecule: CC(C)NC[C@H](O)COc1cccc2ccccc12
  A: 8%[57.1 µM]; B: 32%; C: -5%; D: 6%; E: 7%; F: -14%

Molecule: CC12C=CC(=O)C=C1CCC1C2C(O)CC2(C)C1CCC2(O)C(=O)CO (stereo not drawn)
  A: 3%; B: 64%[activator]; C: 27%; D: 0%; E: -9%; F: -10%

Molecule: COc1ccc(C[C@H](N)C(=O)N[C@H]2[C@@H](O)[C@H](n3cnc4c(N(C)C)ncnc43)O[C@@H]2CO)cc1
  A: 4%; B: -3%; C: -8%; D: 3%; E: -4%; F: 0%

Molecule: O=C1C(c2ccccn2)=[N+]([O-])c2ccccc21
  A: .; B: .; C: ?; D: .; E: .; F: .

Molecule: COc1ccc(CC(N)C(=O)NC2C(O)[C@H](n3cnc4c(N(C)C)ncnc43)O[C@@H]2CO)cc1 (stereo partly drawn)
  A: .; B: .; C: ?; D: .; E: .; F: .

Molecule: O=C(COC(=O)CCC(=O)c1cccs1)NCc1ccco1
  A: -18%; B: -6%; C: 8%; D: ?; E: 4%; F: -3%

Molecule: O=C(COC(=O)/C=C/c1ccco1)Nc1ncc(C(F)(F)F)cc1Cl
  A: ?; B: 50µM*; C: ?; D: ?; E: 10%; F: -2%

Molecule: C#CCCCCCCCCCCCCCCCC(=O)O
  A: .; B: .; C: -5%[12.5 µM]; D: .; E: .; F: .

Molecule: CC(N=C(NC#N)Nc1ccncc1)C(C)(C)C (stereo not drawn)
  A: 15%[57.1 µM]; B: 30%&63%; C: 0%; D: -1%&-1%; E: -4%&13%; F: 16%&-8%&-16%

Molecule: CC(C)NC[C@@H](O)COc1cccc2ccccc12
  A: 10%&5%; B: 22%; C: 11%&3%&15%; D: 3%; E: 17%; F: 5%&-8%

Molecule: C=CCn1c(SCC(=O)Nc2sc3c(c2C#N)CCC(C)C3)nc2cc(C(=O)O)ccc2c1=O (stereo not drawn)
  A: 18%; B: -22%; C: -13%; D: -17%; E: 1%; F: -2%

Molecule: CN1CCN2c3ccccc3Cc3ccccc3[C@@H]2C1
  A: .; B: .; C: ?; D: .; E: .; F: .

Molecule: Cc1ccccc1C(=O)Nc1ccccc1
  A: -1%; B: 14%; C: 9%; D: -6%; E: 2%; F: 2%

Grouped by structure, those above with a thiophene ring, fused or not.
Screens by letter – A = rTrxR1 inhibitor; B = HP1b binding inh; C = 12-LOX inh; D = Pin1 inh; E = ERG Ets-DNA blk; F = GLS inh
Molecule: O=C(COC(=O)CCC(=O)c1cccs1)NCc1ccco1
  A: -18%; B: -6%; C: 8%; D: ?; E: 4%; F: -3%

Molecule: C=CCn1c(SCC(=O)Nc2sc3c(c2C#N)CCC(C)C3)nc2cc(C(=O)O)ccc2c1=O (stereo not drawn)
  A: 18%; B: -22%; C: -13%; D: -17%; E: 1%; F: -2%

A second format for some results above.
| Compound | rTrxR1 inhibitor | HP1b binding inh | 12-LOX inh | Pin1 inh | ERG Ets-DNA blk | GLS inh |
| --- | --- | --- | --- | --- | --- | --- |
| COc1ccc(CC(N)C(=O)NC2C(O)[C@H](n3cnc4c(N(C)C)ncnc43)O[C@@H]2CO)cc1 (stereo partly drawn) | . | . | ? | . | . | . |
| O=C(COC(=O)CCC(=O)c1cccs1)NCc1ccco1 | -18% | -6% | 8% | ? | 4% | -3% |

A different layout for some results above:
Values in the order – rTrxR1 inhibitor, HP1b binding inh, 12-LOX inh, Pin1 inh, ERG Ets-DNA blk, GLS inh
- COc1ccc(CC(N)C(=O)NC2C(O)[C@H](n3cnc4c(N(C)C)ncnc43)O[C@@H]2CO)cc1 (stereo partly drawn)
 : ., ., ?, ., ., .
- O=C(COC(=O)CCC(=O)c1cccs1)NCc1ccco1
 : -18%, -6%, 8%, ?, 4%, -3%
- O=C(COC(=O)/C=C/c1ccco1)Nc1ncc(C(F)(F)F)cc1Cl
 : ?, 50µM*, ?, ?, 10%, -2%
- C#CCCCCCCCCCCCCCCCC(=O)O
 : ., ., -5%[12.5 µM], ., ., .

Other compounds.
Screens by letter – A = rTrxR1 inhibitor; B = HP1b binding inh; C = 12-LOX inh; D = Pin1 inh; E = ERG Ets-DNA blk; F = GLS inh
Molecule: CC[C@@H]1OC(=O)[C@H](C)[C@H](O[C@@H]2C[C@](C)(OC)[C@H](O)[C@H](C)O2)[C@H](C)[C@H](O[C@@H]2O[C@@H](C)C[C@@H](N(C)C)[C@@H]2O)[C@](C)(O)C[C@H](C)C(=NOCOCCOC)[C@H](C)[C@H](O)[C@]1(C)O
  A: .; B: .; C: .; D: .; E: .; F: -3%[20 µM]

Molecule: CN[C@@H]1CC[C@H](c2ccc(Cl)c(Cl)c2)c2ccccc21
  A: -4%; B: 28%; C: ?; D: -3%; E: -9%; F: -8%

Molecule: CC12CCC(=O)C=C1CCC1C2C(=O)CC2(C)C1CCC2(O)C(=O)CO (stereo not drawn)
  A: 15%; B: 49%[activator]; C: -14%; D: 13%; E: 6%; F: -9%

Molecule: CC12CCC(=O)C=C1CCC1C2C(=O)CC2(C)C1CC[C@]2(O)C(=O)CO (stereo partly drawn)
  A: 1%; B: 13%; C: 19%; D: -4%; E: 2%; F: 1%

Molecule: CC(O)[C@@H](N)C(=O)O (stereo partly drawn)
  A: .; B: .; C: 1%; D: .; E: .; F: .

Molecule: FC(F)(F)c1nc2ccccc2[nH]1
  A: 10%; B: 36%; C: -4%; D: -1%; E: -4%; F: -8%

Molecule: CC[C@H]1OC(=O)[C@H](C)[C@@H](O[C@H]2C[C@@](C)(OC)[C@@H](O)[C@H](C)O2)[C@H](C)[C@@H](O[C@@H]2O[C@H](C)C[C@H](N(C)C)[C@H]2O)[C@](C)(O)C[C@H](C)C(=NOCOCCOC)[C@H](C)[C@@H](O)[C@]1(C)O
  A: .; B: .; C: -22%[57.4 µM]; D: .; E: .; F: 6%

Molecule: CCCN(C/C=C/I)C1CCc2cccc(O)c2C1 (stereo not drawn)
  A: .; B: .; C: ?; D: .; E: .; F: .

Molecule: CCOc1ccc(C(C)=O)cc1N1C(=O)C2C3C=CC(C3)C2C1=O (stereo not drawn)
  A: -5%; B: ?; C: -1%; D: -12%; E: 5%; F: -18%

Molecule: CCCC1C(=O)N2C(N(C)C)=Nc3ccc(C)cc3N2C1=O (stereo not drawn)
  A: ?; B: 39%[activator]; C: -19%; D: 0%; E: -7%; F: 2%

Molecule: COCCCCC(=NOCCN)c1ccc(C(F)(F)F)cc1
  A: .; B: .; C: ?; D: .; E: .; F: 8%

2 records picked at random from the list so far, as already listed:
Screens by letter – A = rTrxR1 inhibitor; B = HP1b binding inh; C = 12-LOX inh; D = Pin1 inh; E = ERG Ets-DNA blk; F = GLS inh
Molecule: CCCC1C(=O)N2C(N(C)C)=Nc3ccc(C)cc3N2C1=O (stereo not drawn)
  A: ?; B: 39%[activator]; C: -19%; D: 0%; E: -7%; F: 2%

Molecule: CCOc1ccc(C(C)=O)cc1N1C(=O)C2C3C=CC(C3)C2C1=O (stereo not drawn)
  A: -5%; B: ?; C: -1%; D: -12%; E: 5%; F: -18%

Only part of the results is shown (hit frequency here may not be typical).
